# Source: PubChem (National Center for Advancing Translational Sciences (NCATS))
# VDR inh: Inhibitors of the vitamin D receptor (VDR): qHTS; AID 504847, 2011; Potency, µM, inactives show max response, negative = inhibition, usual class: inhibitors; 0.93% of 400,000 active; VDR-SRC2-3 peptide fluorescence polarization, 2 h; Vitamin D3 receptor (Homo sapiens), P11473; active means well fitted inhibition curve with a large enough effect; inconclusive means small, poorly fitted or top-dose-only effect, or another doubt; inactive means no such curve, though single readings can be large or run the other way; further: series mostly up to about 120 µM
# Target sequence (P11473 whole entry, looked up): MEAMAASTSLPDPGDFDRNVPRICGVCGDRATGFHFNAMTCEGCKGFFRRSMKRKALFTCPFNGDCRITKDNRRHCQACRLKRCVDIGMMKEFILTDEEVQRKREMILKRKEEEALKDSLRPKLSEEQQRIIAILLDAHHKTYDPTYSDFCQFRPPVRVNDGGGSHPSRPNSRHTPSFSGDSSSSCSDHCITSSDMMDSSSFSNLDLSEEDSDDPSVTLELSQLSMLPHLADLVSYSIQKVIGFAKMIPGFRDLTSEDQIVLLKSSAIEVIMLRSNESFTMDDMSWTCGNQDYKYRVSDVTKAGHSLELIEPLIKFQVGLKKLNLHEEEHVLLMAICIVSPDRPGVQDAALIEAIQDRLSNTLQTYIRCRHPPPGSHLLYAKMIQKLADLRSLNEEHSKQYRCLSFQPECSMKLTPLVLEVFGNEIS
#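 The screen uses fluorescence polarization to detect compounds that interfere with recruitment of the SRC2-3 coactivator peptide to VDR; plates are read after 2 h at room temperature.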
# An asterisk follows results filed as active; u = inconclusive; & = joins results of further samples; ! = a repeat was not active; [ ] = dose if it differs, or a comment. On the % scale 0 is the no-effect control and ±100 the full control effect; potency means the concentration at half of the fitted maximal effect.
Structure	VDR inh
Cn1cnnc1SCC(=O)NC(=O)NC1CCCC1	-5%
O=C(NNS(=O)(=O)c1ccc(F)c(Cl)c1)c1cccc(S(=O)(=O)N2CCOCC2)c1	2%
O=C1c2oc3ccccc3c(=O)c2C(c2cccc(O)c2)N1Cc1ccc(F)cc1 (stereo not drawn)	0%
COc1ccc(C(=O)OCC(=O)NC(=O)NC2CCCC2)c(OC)c1	-12%
Cc1cccc(N2C(N)=C(C#N)C(C#N)(C#N)C2c2ccccc2)c1 (stereo not drawn)	-4%
CS(=O)(=O)N1CCn2c1nc1ccccc12	0%
Nc1nnc(SCc2cc3c(cc2Cl)OCO3)s1	0%
CN(C)CCOC(=O)Cc1ccc(Cl)cc1	5%
CCC(C)(C)C1CCc2c(sc(NC(=O)c3ccccc3C(=O)O)c2C#N)C1 (stereo not drawn)	-25%
O=C(NCc1ccccc1)c1ccc(-c2ccccc2C(F)(F)F)o1	112µM*!
CN(C)S(=O)(=O)Nc1ccc(-c2cn3ccsc3n2)cc1	-13%
CN(C(=O)COC(=O)Cc1c(Cl)cccc1Cl)c1c(N)n(Cc2ccccc2)c(=O)[nH]c1=O	-8%
COc1ccccc1NC(=O)N1CCN(c2ccccc2F)CC1	-6%
CCC(OC(=O)c1cccs1)C(=O)NCc1ccc(C)cc1 (stereo not drawn)	6%
Cc1c(N)c(=O)n(-c2ccccc2)n1C	14%&1%

# In the list so far, these have a carbonyl joined to an NH by a bond outside any ring:
Structure	VDR inh
Cn1cnnc1SCC(=O)NC(=O)NC1CCCC1	-5%
O=C(NNS(=O)(=O)c1ccc(F)c(Cl)c1)c1cccc(S(=O)(=O)N2CCOCC2)c1	2%
COc1ccc(C(=O)OCC(=O)NC(=O)NC2CCCC2)c(OC)c1	-12%
CCC(C)(C)C1CCc2c(sc(NC(=O)c3ccccc3C(=O)O)c2C#N)C1 (stereo not drawn)	-25%
O=C(NCc1ccccc1)c1ccc(-c2ccccc2C(F)(F)F)o1	112µM*!
COc1ccccc1NC(=O)N1CCN(c2ccccc2F)CC1	-6%
CCC(OC(=O)c1cccs1)C(=O)NCc1ccc(C)cc1 (stereo not drawn)	6%

# Next part.
Structure	VDR inh
O=C(CCSCCC(=O)NCc1ccco1)NCc1ccco1	u
Cc1ccc2nc(N3CCC(C(=O)N4CCN(c5cccc(Cl)c5)CC4)CC3)[nH]c2c1	1%
Cc1nc2sccn2c(=O)c1S(=O)(=O)Nc1cc(Cl)ccc1O	4%
N=c1c2c(-c3ccccc3)c(-c3ccccc3)n(Cc3ccco3)c2ncn1CCCN1CCOCC1	-14%
CC(/C=N/NC(=O)c1cc(-c2ccccc2)nc2ccccc12)=C\c1ccco1	-6%
CCn1c(Cc2ccccc2)nnc1SCC(=O)Nc1ccc(N)cc1	9%
COc1ccc(-c2nc3ccc(C)cn3c2NCc2ccccc2)cc1SC1CCCCC1	-5%
CCc1ccc(NC(=O)C2CCCN2S(=O)(=O)c2ccc3c(c2)n(C)c(=O)c(=O)n3C)cc1 (stereo not drawn)	3%&-5%
CC(=O)N/C(=C/c1ccccc1)C(=O)NCCO	-10%
CC(=O)c1ccc(NC(=O)CCc2c(C)nn(-c3ccc4nnc(C)n4n3)c2C)cc1	7%
Cc1cc(C)c(C)c(OCC(=O)NCc2nc(-c3ccccc3)no2)c1	-8%
CCc1cc2c(=O)n(-c3ccccc3)c(SCC(=O)O)nc2s1	15%
O=C(O)c1ccccc1Nc1ccc2nonc2c1[N+](=O)[O-]	0%
CNC(=O)COc1ncnc2sccc12	14%
O=C(NCCC1=CCCCC1)C1CCN(S(=O)(=O)c2cnc[nH]2)CC1	-9%

# Rewritten as labelled records: entries from further up
> Cc1nc2sccn2c(=O)c1S(=O)(=O)Nc1cc(Cl)ccc1O
- VDR inh: 4%
> N=c1c2c(-c3ccccc3)c(-c3ccccc3)n(Cc3ccco3)c2ncn1CCCN1CCOCC1
- VDR inh: -14%
> CC(/C=N/NC(=O)c1cc(-c2ccccc2)nc2ccccc12)=C\c1ccco1
- VDR inh: -6%

# Another view of some results above:
VDR inh | canonical_smiles
6% | CCC(OC(=O)c1cccs1)C(=O)NCc1ccc(C)cc1 (stereo not drawn)
0% | Nc1nnc(SCc2cc3c(cc2Cl)OCO3)s1

# (continued)
Structure	VDR inh
CCc1nnc(NC(=O)C2CCN(c3nc(C)cc(C)n3)CC2)s1	31%[activator]
O=C(NC1CC1)c1c[nH]c2ccc(S(=O)(=O)Nc3cccc(C(F)(F)F)c3)cc2c1=O	0%
CC(C)Oc1ccc(C(=O)NC2CCN(Cc3ccccc3)CC2)cc1	-15%
Cc1ccc(CCNC(=O)c2cnc3c(C)cccn3c2=O)cc1	4%
CC(C)C(=O)NC(c1ccco1)c1c(O)ccc2ccccc12 (stereo not drawn)	-4%
O=C(NNC(=O)c1ccncc1)Nc1ccc(Br)cc1	3%
Cc1c(Cl)cccc1NC(=O)C1CCCN(c2nnc(-n3c(C)ccc3C)s2)C1 (stereo not drawn)	u
COc1ccc(N2CC(O)=C(c3nc4ccccc4s3)C2=N)cc1	14%
COc1ccc(N2C(=O)CC(N3CCN(c4ccccc4OC)CC3)C2=O)cc1 (stereo not drawn)	5%

# Marked active in VDR inh, among the entries above:
Structure	VDR inh
O=C(NCc1ccccc1)c1ccc(-c2ccccc2C(F)(F)F)o1	112µM*!

# These rows are one share of the data; the hit share may differ from the screen's.
